Bioassay records deposited in PubChem BioAssay by Broad Institute.
DUX4 txn inh: DUX4-mediated transcription inhibition. 293T-iDUX4 ZSCAN4-Gaussia luciferase reporter, 24 h; active compounds read low. hit rate 0.8% among 37,000. activity change, negative = inhibition, % (concentration not given with the values);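 active = -10% or lower and over 25 points stronger than a control reporter; inconclusive = -10% or lower with a smaller gap; inactive = above -10%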;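 also: 0% = median of neutral control wells and -100% = median of positive control wells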
DUX4 txn inh difference: also measured in DUX4 txn inh; calls as there; Gaussia minus Italica difference, %; measured here: selective DUX4 reporter inhibition;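 worked out from the two reporters; negative = selective loss of the DUX4 reporter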
DUX4 txn inh control: also measured in DUX4 txn inh; calls as there; activity change, negative = inhibition, %; measured here: Italica tet-on control reporter;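 0 = neutral control and -100 = positive control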
Active calls of the source: *; ? = inconclusive; / = no result given; & = joins results of further samples. Not all compounds are listed. The share of hits here may be higher or lower than overall.

SMILES	DUX4 txn inh	DUX4 txn inh difference	DUX4 txn inh control
O=C(C[C@H]1C[C@H]2c3cc(NC(=O)c4ccc5c(c4)OCO5)ccc3O[C@H]2[C@H](CO)O1)NCc1ccc(Oc2ccccc2)cc1	?	/	/
C[C@@H]1CCCCO[C@@H](CN(C)C(=O)Nc2ccc(C(F)(F)F)cc2)[C@H](C)CN([C@@H](C)CO)C(=O)c2cc(NS(=O)(=O)c3cn(C)cn3)ccc2O1	5.4	1.7	3.8
O=C(c1ccccc1)N1C[C@@H]2[C@H](c3ccccc31)[C@H](CO)N2Cc1ccccn1	-1.9	6.4	-8.3
O=C(C1CCC1)N1C[C@@H]2N[C@H](C1)C2c1ccc(-c2cncnc2)cc1 (stereo partly specified)	-25.8*	-25.4*	-0.4*
C[C@H](CO)N1C[C@H](C)[C@H](CN(C)S(=O)(=O)c2cccc(F)c2)OCc2ccccc2-c2c(n(C)c3ccccc23)C1=O	?	/	/
C[C@H](CO)N1C[C@H](C)[C@@H](CN(C)C(=O)Nc2cccc(F)c2)Oc2cc(/C=C/c3ccccc3)ccc2S1(=O)=O	0.9	0.2	0.7
C[C@@H]1CN([C@H](C)CO)C(=O)c2cc(NS(C)(=O)=O)ccc2O[C@H]1CN(C)C	-5.8	-1.6	-4.2
N#Cc1cccc(-c2ccc([C@@H]3[C@@H](CO)N4CCCCN(Cc5ccccc5F)C[C@@H]34)cc2)c1	?	/	/
O=C(C[C@H]1CC[C@H]2[C@@H](COC[C@@H](O)CN2Cc2ccccc2F)O1)NCc1ccccc1F	?	/	/
COCC(=O)N1CC(=O)N2[C@H](C1)[C@@H](c1ccc(C#CCc3ccccc3)cc1)[C@@H]2CO	-4.4	-7.3	2.9
O=C(C[C@@H]1C[C@H]2c3cc(NC(=O)CC4CC4)ccc3O[C@H]2[C@@H](CO)O1)NCC(F)(F)F	2.4	-2.8	5.2
CCCNC(=O)C[C@@H]1CC[C@H]2[C@H](COc3ccc(NC(=O)Nc4ccccc4F)cc3C(=O)N2C)O1	-2.9	-5.6	2.7
O=C(Nc1ccc2c(c1)[C@@H]1C[C@@H](CC(=O)N3CCOCC3)O[C@H](CO)[C@@H]1O2)c1cccnc1	9.2	5.5	3.7
CCCNC(=O)N1[C@@H]2CNC[C@H]1C2c1ccc(-c2ccc(C)cc2)cc1 (stereo partly specified)	4.4&7.1	-6.6&5.6	11.1&1.5
CCNC(=O)[C@@H]1[C@@H](CO)[C@@H]2Cn3c(ccc(-c4ccccc4)c3=O)[C@@H]2N1CC1CC1	5.2	6.0	-0.8
COc1ccccc1NC(=O)N1C[C@@H](O)COC[C@H]2O[C@H](CC(=O)N3CCC(Cc4ccccc4)CC3)CC[C@@H]21	?	/	/
C/C=C/c1ccc(C2[C@@H]3CN(Cc4ccc5c(c4)OCO5)C[C@H]2N3)cc1 (stereo partly specified)	-9.8&-0.6	-11.9&-6.0	2.1&5.4
COc1ccccc1CN1[C@H](CO)[C@@H](c2ccccc2)C12CN(C(=O)c1cnccn1)C2	?	/	/
CCN(C[C@@H]1N[C@@H](CO)[C@@H]1c1ccc(-c2ccc(F)cc2)cc1)C(=O)COC	5.7	1.7	4.0
C[C@H]1CN([C@@H](C)CO)C(=O)c2ccccc2-c2ccccc2CO[C@H]1CN(C)S(=O)(=O)c1cccc(F)c1	?	/	/
C[C@H](CO)N1C[C@H](C)[C@@H](CN(C)C(=O)CCN(C)C)OCc2ccccc2-c2c(n(C)c3ccccc23)C1=O	-1.7	-13.6	11.9
C[C@@H]1CN([C@H](C)CO)C(=O)Cc2cc(NC(=O)Cn3cnnn3)ccc2O[C@H]1CN(C)C(=O)Nc1ccc(C(F)(F)F)cc1	3.0	0.3	2.7
O=C(Nc1ccccc1)N1CC(=O)N2[C@H](CO)[C@@H](c3ccc(C#CC4CCCCC4)cc3)[C@@H]2C1	-4.6	6.3	-10.9
CO[C@H]1CN(C)C(=O)c2ccc(NS(C)(=O)=O)cc2OC[C@H](C)N(C(=O)c2ccc3c(c2)OCO3)C[C@H]1C	-0.3	-2.5	2.2
C[C@@H]1CCCCO[C@H](CN(C)C(=O)c2ccncc2)[C@@H](C)CN([C@H](C)CO)C(=O)c2cc(NC(=O)CCCCCC(=O)Nc3ccccc3N)ccc2O1	0.5	1.6	-1.1
COc1cccc(CN2[C@@H]3CNC[C@H]2C3c2ccc(-c3ccncc3)cc2)c1 (stereo partly specified)	17.9&3.5	20.2&8.5	-2.3&-5.0
Cc1noc(C)c1NC(=O)N(C)C[C@@H]1OCCCC[C@H](C)Oc2ccc(NC(=O)Nc3ccc(C(F)(F)F)cc3)cc2C(=O)N([C@@H](C)CO)C[C@H]1C	0.4	0.0	0.4
COc1ccccc1NC(=O)N[C@H]1CC[C@@H](CCNS(=O)(=O)c2ccc(Cl)cc2)O[C@H]1CO	-2.8	2.8	-5.6
C[C@@H]1CN([C@@H](C)CO)S(=O)(=O)c2ccc(C3=CCCCC3)cc2O[C@H]1CN(C)Cc1ccccc1F	1.3	-0.3	1.5
CO[C@H]1CC[C@@H]2CCOc3c(C#N)cccc3C(=O)N(C)C[C@H](c3ccccc3)CC(=O)N(C)C[C@H]1O2	5.0	1.3	3.7
O=C(C[C@@H]1CC[C@H]2[C@@H](COC[C@H](O)CN2C(=O)Nc2ccc(Cl)cc2)O1)NC1Cc2ccccc2C1	-4.4	-6.2	1.8
COCCNC(=O)C[C@@H]1CC[C@H]2[C@@H](COc3ccc(NS(=O)(=O)c4ccc(Cl)cc4)cc3C(=O)N2C)O1	3.5	2.2	1.2
CCCNC(=O)N1CC2(C1)CN(C(=O)COC)[C@H](CO)c1c2c2ccc(OC)cc2n1C	15.4	16.6	-1.2
CO[C@@H]1CN(C)C(=O)c2ccc(NC(=O)C3CC3)cc2OC[C@@H](C)N(C(=O)c2ccccc2F)C[C@H]1C	-5.1	-3.9	-1.2
O=C(NC[C@H]1[C@@H](c2ccccc2)[C@H](CO)N1C(=O)Cc1ccncc1)C1CCC1	2.5	0.8	1.6
O=C(C[C@H]1CC[C@H]2NC[C@H](O)COC[C@@H]2O1)Nc1ccc(-c2ccccc2)cc1	-0.6	-0.4	-0.2
C[C@@H]1CN([C@H](C)CO)C(=O)CCCn2cc(nn2)CO[C@H]1CN(C)Cc1cccc(C(=O)O)c1	-0.1	-0.3	0.3
CN(C)C(=O)[C@@H]1[C@@H](CO)[C@@H]2Cn3c(ccc(-c4ccccc4)c3=O)[C@@H]2N1CCC(F)(F)F	-1.1	-2.1	1.0
C[C@H]1CN([C@@H](C)CO)S(=O)(=O)c2ccc(/C=C/c3ccccc3)cc2O[C@H]1CN(C)Cc1cccnc1	0.9	0.4	0.5
COc1ccc2c3c(n(C)c2c1)[C@@H](CO)N(C(=O)Nc1ccc(F)cc1)CC31CCN(C(=O)CC2CC2)CC1	5.5	4.0	1.4
O=C(C[C@H]1C=C[C@@H](NC(=O)CN2CCOCC2)[C@@H](CO)O1)NCc1cccc(F)c1	2.5	-1.9	4.4
O=C(C[C@H]1CC[C@H]2[C@@H](COC[C@@H](O)CN2Cc2cccc(C(F)(F)F)c2)O1)NCc1ccc(Cl)cc1	-9.5	-8.3	-1.1
C[C@@H]1CCCCO[C@@H](CN(C)Cc2ccc3c(c2)OCO3)[C@@H](C)CN([C@H](C)CO)C(=O)c2cc(NC(=O)CCC(F)(F)F)ccc2O1	6.2	1.4	4.8
COc1ccccc1C(=O)Nc1ccc2c(c1)C(=O)N(C)[C@@H]1CC[C@H](CC(=O)NCc3ccc(Cl)c(Cl)c3)O[C@H]1CO2	0.2	0.3	-0.2
COc1ccc(C#Cc2ccc3c(c2)[C@H]2[C@H](CCN2C(=O)C2CCCCC2)[C@@H](CO)N3)cc1	17.9	15.0	2.9
C[C@@H]1CN([C@@H](C)CO)C(=O)Cc2cc(NS(=O)(=O)c3cn(C)cn3)ccc2O[C@H]1CN(C)Cc1ccc2c(c1)OCO2	0.4	-1.0	1.4
CC(C)NC(=O)N[C@@H]1C=C[C@H](CC(=O)NCc2ccc(Oc3ccccc3)cc2)O[C@H]1CO	2.4	3.0	-0.6
CN(C)C(=O)C[C@@H]1C=C[C@H](NC(=O)C2CCOCC2)[C@@H](CO)O1	8.3	7.1	1.3
CCC(=O)N1CCCCN2[C@@H](CO)[C@H](c3ccc(-c4ccc(F)cc4)cc3)[C@@H]2C1	3.7	4.4	-0.6
COCC(=O)N(C)C[C@@H]1Oc2ncc(C#Cc3ccncc3)cc2C(=O)N([C@@H](C)CO)C[C@H]1C	1.1	-2.6	3.7
C[C@H](CO)N1C[C@H](C)[C@@H](CN(C)S(=O)(=O)c2ccc(Cl)cc2)Oc2ccc(NS(=O)(=O)c3cccs3)cc2C1=O	-1.1	-3.8	2.7
COc1ccccc1NC(=O)N[C@H]1CC[C@H](CC(=O)N2CCC(Cc3ccccc3)CC2)O[C@H]1CO	-4.4	1.2	-5.6
C/C=C/c1cnc2c(c1)C(=O)N([C@H](C)CO)C[C@@H](C)[C@H](CN(C)C(=O)c1cnccn1)O2	3.6	-0.2	3.8
COc1ccccc1S(=O)(=O)N(C)C[C@H]1Oc2cc(/C=C/c3ccccc3)ccc2S(=O)(=O)N([C@H](C)CO)C[C@H]1C	1.3	-2.4	3.6
CN(C)CC(=O)Nc1ccc2c(c1)[C@H]1C[C@@H](CC(=O)NCc3cccc(F)c3)O[C@@H](CO)[C@H]1O2	6.9	11.5	-4.6
CN(C)C(=O)c1cccc(-c2ccccc2[C@@H]2[C@@H](CO)N(C(=O)C3CCCCC3)[C@H]2C#N)c1	9.7	5.9	3.8
CNC[C@H]1Oc2c(NC(=O)Nc3cccc4ccccc34)cccc2C(=O)N([C@H](C)CO)C[C@@H]1C	-3.2	-2.9	-0.2
CCC(=O)N1CC2(CCN(C(=O)Nc3c(C)noc3C)CC2)c2c([nH]c3cc(OC)ccc23)[C@@H]1CO	20.2	4.9	15.3
C[C@H](O)C#Cc1ccc([C@@H]2[C@@H](CO)N3CCCCN(C(=O)Nc4ccccc4)C[C@@H]23)cc1	?	/	/
O=C(C1CCCCC1)N1C[C@@H]2[C@H](c3ccccc31)[C@H](CO)N2C(=O)c1ccccc1F	-2.2	0.6	-2.7

Four neighbouring entries already listed, quoted:
SMILES	DUX4 txn inh	DUX4 txn inh difference	DUX4 txn inh control
CNC[C@H]1Oc2c(NC(=O)Nc3cccc4ccccc34)cccc2C(=O)N([C@H](C)CO)C[C@@H]1C	-3.2	-2.9	-0.2
CCC(=O)N1CC2(CCN(C(=O)Nc3c(C)noc3C)CC2)c2c([nH]c3cc(OC)ccc23)[C@@H]1CO	20.2	4.9	15.3
C[C@H](O)C#Cc1ccc([C@@H]2[C@@H](CO)N3CCCCN(C(=O)Nc4ccccc4)C[C@@H]23)cc1	?	/	/
O=C(C1CCCCC1)N1C[C@@H]2[C@H](c3ccccc31)[C@H](CO)N2C(=O)c1ccccc1F	-2.2	0.6	-2.7

The list goes on.
SMILES	DUX4 txn inh	DUX4 txn inh difference	DUX4 txn inh control
CN1C(=O)c2cc(NC(=O)c3cccs3)ccc2OC[C@H]2O[C@@H](CC(=O)O)CC[C@@H]21	-1.5	-0.1	-1.3
CN(C)CCCNC(=O)C[C@H]1CC[C@H]2[C@@H](COC[C@@H](O)CN2CC2CC2)O1	7.2	1.1	6.1
Cc1ccc(S(=O)(=O)Nc2ccc3c(c2)CC(=O)N([C@H](C)CO)C[C@@H](C)[C@H](CN(C)C(=O)Nc2ccc4c(c2)OCO4)O3)cc1	1.7	1.8	-0.1
C[C@@H]1CN([C@@H](C)CO)C(=O)c2cccc(NC(=O)CCCCCC(=O)Nc3ccccc3N)c2O[C@H]1CN(C)Cc1ccc(Cl)c(Cl)c1	-4.8	-5.3	0.5
C[C@@H]1CN([C@@H](C)CO)C(=O)c2c(c3ccccc3n2C)-c2ccccc2CO[C@@H]1CN(C)Cc1ccc(C(F)(F)F)cc1	-27.1*	-28.1*	1.0*
O=C(C[C@H]1CC[C@@H]2[C@H](COC[C@@H](O)CN2CC2CCCCC2)O1)NCc1ccc(Cl)cc1	-5.2	-2.3	-2.8
O=C1CN(S(=O)(=O)c2ccccc2)C[C@@H]2[C@H](c3ccc(Br)cc3)[C@H](CO)N12	0.6	-5.9	6.5
CCCNC(=O)N1CC(=O)N2[C@H](CO)[C@H](c3ccc(C#CCC4CCCC4)cc3)[C@@H]2C1	-6.8	-3.1	-3.6
CN(C)CCCNC(=O)C[C@@H]1CC[C@H]2[C@@H](COc3ccc(NC(=O)NC4CCCC4)cc3C(=O)N2C)O1	1.5	-1.7	3.2
COCC#Cc1ccc2c(c1)O[C@@H](CN(C)C(=O)C1CCOCC1)[C@@H](C)CN([C@H](C)CO)S2(=O)=O	3.6	6.5	-2.9
COc1ccc(-c2ccc3c(c2)[C@@H]2[C@@H](CCN2C(=O)NC2CCCCC2)[C@@H](CO)N3C)cc1	?	/	/
COC(=O)C[C@H]1C[C@H]2c3cc(NS(=O)(=O)c4ccc(F)cc4)ccc3O[C@H]2[C@@H](CO)O1	2.6	-2.7	5.3
O=C(C1CC1)N1C[C@H]2[C@@H](c3ccccc31)[C@H](CO)N2C(=O)c1ccccn1	2.0	1.6	0.4
CC=Cc1ccc2n(c1=O)C[C@@H]1[C@@H](CO)[C@H](C(=O)NCCCN3CCOCC3)[C@H]2N1Cc1cocn1 (mixture of isomers)	-1.7	-6.1	4.3
CC(C)NC(=O)N1[C@@H]2CN(C(=O)c3ccc(F)cc3)c3ccccc3[C@@H]2[C@@H]1CO	-0.7	1.5	-2.2
C[C@H]1CN([C@@H](C)CO)C(=O)Cc2cc(N(C)C)ccc2O[C@@H]1CN(C)C(=O)NC1CCCCC1	-0.4	-0.9	0.5

Molecules listed so far that have a COOH group (two):
SMILES	DUX4 txn inh	DUX4 txn inh difference	DUX4 txn inh control
C[C@@H]1CN([C@H](C)CO)C(=O)CCCn2cc(nn2)CO[C@H]1CN(C)Cc1cccc(C(=O)O)c1	-0.1	-0.3	0.3
CN1C(=O)c2cc(NC(=O)c3cccs3)ccc2OC[C@H]2O[C@@H](CC(=O)O)CC[C@@H]21	-1.5	-0.1	-1.3
